From PubChem BioAssay
KCNQ2 pot: potentiators of rat KCNQ2 potassium channel; AID 2239, 2010; Potassium voltage-gated channel subfamily KQT member 2 (Rattus norvegicus), O88943; B-score at 10 µM; CHO-K1 KCNQ2, FluxOR thallium flux fluorescence; active compounds read high; hit rate 0.54% among 310,000;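 active = fluorescence ratio B-score at least 3 SD of library B-scores, with initial fluorescence B-score within 3 SD, cut at about 5.3 in these data; same plate scores as AID 2156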;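 note: B-score of peak minus minimum over baseline fluorescence ratio after K+ and Tl+ stimulus; positive B-score means potentiation of KCNQ2 with more thallium influx and brighter signal; only the inactives scoring about 0 or higher are listed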
Target sequence (O88943 whole entry, looked up): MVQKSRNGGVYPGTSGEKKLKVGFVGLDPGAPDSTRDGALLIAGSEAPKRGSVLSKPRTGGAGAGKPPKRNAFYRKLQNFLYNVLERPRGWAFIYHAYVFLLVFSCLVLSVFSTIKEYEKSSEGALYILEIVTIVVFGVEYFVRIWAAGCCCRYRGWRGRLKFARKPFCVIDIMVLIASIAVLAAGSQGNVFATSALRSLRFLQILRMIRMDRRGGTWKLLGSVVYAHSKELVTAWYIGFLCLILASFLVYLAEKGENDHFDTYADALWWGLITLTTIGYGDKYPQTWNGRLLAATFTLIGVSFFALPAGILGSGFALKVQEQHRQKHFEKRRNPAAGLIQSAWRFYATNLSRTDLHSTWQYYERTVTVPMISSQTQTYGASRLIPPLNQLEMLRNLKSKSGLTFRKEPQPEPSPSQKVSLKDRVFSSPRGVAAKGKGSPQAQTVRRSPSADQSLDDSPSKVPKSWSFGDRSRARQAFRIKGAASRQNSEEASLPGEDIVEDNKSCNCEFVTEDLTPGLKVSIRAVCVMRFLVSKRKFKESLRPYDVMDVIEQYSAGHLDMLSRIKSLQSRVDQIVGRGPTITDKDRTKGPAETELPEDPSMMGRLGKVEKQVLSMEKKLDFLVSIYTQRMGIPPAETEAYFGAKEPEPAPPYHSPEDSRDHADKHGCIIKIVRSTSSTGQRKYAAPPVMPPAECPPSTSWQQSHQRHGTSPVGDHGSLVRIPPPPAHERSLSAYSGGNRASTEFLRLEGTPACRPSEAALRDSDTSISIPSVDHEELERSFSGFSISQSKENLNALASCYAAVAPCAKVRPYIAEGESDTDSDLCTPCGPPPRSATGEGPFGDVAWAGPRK
KCNQ2 pot baseline: second read-out of KCNQ2 pot, no call of its own (marks repeat the call); B-score; compound at 10 µM; measured here: initial fluorescence intensity artifact check;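 brightness before thallium and not channel activity; 0 = typical well and far values either way flag optical interference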
Starred values were filed as active, the others as inactive. Only part of the results is shown; count on the stated rates, not on these rows.

SMILES | KCNQ2 pot | KCNQ2 pot baseline
Cc1ccc(CN2CCN(/N=C/c3ccc(Cl)c([N+](=O)[O-])c3)CC2)cc1 | 0.57 | 4
Cc1cccc(Nc2nc(N)nc(CSc3nccc(C)n3)n2)c1 | 3 | -0.44
NC(=O)CC(NC(=O)Cc1ccc(Br)cc1)c1ccc(NCc2cc(F)ccc2F)c([N+](=O)[O-])c1 (stereo not given) | 0.91 | 0.37
CC1CCCCC1N=C1NC(C)(C)CS1 (stereo not given) | 0.02 | 1.5
CSc1ncccc1C(=O)N1CCCC(CCC(=O)NCc2ccc(F)c(F)c2)C1 (stereo not given) | 1.2 | 0.59
COc1ccc(-c2ccc(/C=C3\C(=O)N(c4ccccc4)N=C3c3ccccc3)o2)c([N+](=O)[O-])c1 | 0.09 | -1.5
Cc1nn(-c2ccccc2)c(C)c1/C=N/NC(=O)c1cccs1 | 0.09 | -0.02
CCC(=O)N1CCc2cc(Br)cc(S(=O)(=O)N3CCN(C(=O)c4ccco4)CC3)c21 | 0.01 | 0.6
CNC(=O)CN1C(=O)NC(c2ccccc2)(c2ccccc2)C1=O | 0.04 | -0.18
O=C1CC(Nc2ccc(N3CCOCC3)cc2)C(=O)N1CCc1ccccc1 (stereo not given) | 2.2 | -1.2
O=C(Cn1c(=O)c(=O)n(Cc2ccccc2)c2ccc(Cl)cc21)Nc1ccc(F)cc1F | 1.5 | -1.2
Cc1cccnc1CCNC(=O)CCc1nnc(-c2ccccc2)o1 | 0.12 | -0.01
O=C(COC(=O)c1ccco1)Nc1ccccc1[N+](=O)[O-] | 1.2 | 0.33
COc1cc(C(=O)ON=C2C(C)=CC(=O)C=C2C)cc(OC)c1OC | 1.5 | -0.69
CCNc1nc(NCC)nc(N2CC(=O)N(CC(=O)OCC)C2=N)n1 | 2.1 | 0
O=C(OCC(=O)c1c[nH]c2ccccc12)C1=COCCO1 | 0.55 | -1.4
COc1ccc(/C=N/n2c(=O)[nH]c3c([nH]c4ccc(Br)cc43)c2=O)cc1CN1CCOCC1 | 0.27 | 0.72
O=C(NCc1ccccc1Cl)C(=O)NCC1OCCN1S(=O)(=O)c1cccs1 (stereo not given) | 0.01 | -0.66
CC(=O)C1CCCN(C(=O)c2ccc3oc(CCc4ccccc4)nc3c2)C1 (stereo not given) | 0.32 | 0.53
Nc1nc(N)nc(-c2ccc(Cl)cc2)n1 | 1.6 | -0.72
O=S1(=O)N=C(N(CCO)/N=C/c2ccccc2)c2ccccc21 | 0.01 | 0.14
Cc1ccc(N2CC(C(=O)NCc3ccco3)CC2=O)cc1Cl (stereo not given) | 0.06 | 1.1
Cc1ccc(/C=N\NC(=O)c2ccc3c(c2)OCO3)o1 | 0.15 | -0.46
COc1ccc(/C=N/NC(=O)c2[nH]c3ccc(Cl)cc3c2-c2ccccc2)c(C(=O)O)c1OC | 0.75 | 0.18
CC(C)CC(=O)O/N=C1\C(=O)N(c2ccccc2)c2ccccc21 | 0.75 | 1.4
Cc1cc(C)c(NC(=O)C(C)N2CCCCCC2)c(C)c1 (stereo not given) | 0.68 | 1.6
O=C(COC(=O)c1ccccc1SCC(=O)N1CCCC1)Nc1ccccc1C(F)(F)F | 1.6 | 0.38
CC(C)CNC(=O)C1c2ccccc2Oc2ccccc21 | 0.24 | -1.5
CCOC(=O)c1cc(C#N)c(SC)nc1-c1ccccc1 | 0.47 | 2.4
CC(=O)NCc1nc2ccccc2n1Cc1ccccc1F | 0.11 | -2
Cc1ccc(Cn2nnc3c(=O)n(CC(=O)NCc4ccco4)cnc32)cc1 | 0.57 | -1.3
c1ccc(OCc2nnc3n2N=C(c2ccccc2)CS3)cc1 | 1.1 | -0.06
[O-][n+]1onc2c3cc(-c4ccccc4)nnc3ccc21 | 0.64 | 1.2
O=C(O)/C=C\C(=O)Nc1ccc(N2CCN(c3ccc(F)cc3)CC2)cc1 | 0.62 | 0
O=C(CSc1ccc2nnc(-c3ccc(Cl)cc3)n2n1)N1CCCc2ccccc21 | 0.82 | -0.57
Cc1cc(NC(=O)c2ccc(F)cc2F)n(-c2nc3ccccc3[nH]2)n1 | 0.27 | 1.2
COc1cc(C(CCN2CCOCC2)c2c(OC)cc(OC)c3c2OC(=O)CC3c2ccc(N(C)C)cc2)cc(OC)c1OC (stereo not given) | 1.6 | -0.24
CCOC(=O)C1C(=O)CC(C)(O)C(C(=O)OCC)C1c1ccccc1 (stereo not given) | 0.97 | 1.2
COc1ccc(S(=O)(=O)NCCCN2CCOCC2)c2ccccc12 | 0.2 | -1.2
COc1nc(/C(N)=N/O)nc(N2CCCCC2)n1 | 1.6 | -0.01

Arranged by SMILES length (highest first): 4 of the compounds above.
SMILES | KCNQ2 pot | KCNQ2 pot baseline
O=C(O)/C=C\C(=O)Nc1ccc(N2CCN(c3ccc(F)cc3)CC2)cc1 | 0.62 | 0
CC(C)CC(=O)O/N=C1\C(=O)N(c2ccccc2)c2ccccc21 | 0.75 | 1.4
O=S1(=O)N=C(N(CCO)/N=C/c2ccccc2)c2ccccc21 | 0.01 | 0.14
CC(C)CNC(=O)C1c2ccccc2Oc2ccccc21 | 0.24 | -1.5

Next entries:
SMILES | KCNQ2 pot | KCNQ2 pot baseline
OC(COC(c1ccc(Cl)cc1)c1ccc(Cl)cc1)CN1CCCC1 (stereo not given) | 2.5 | 0.03
O=c1c(-c2nc3ccccc3s2)cccn1Cc1ccc(Cl)cc1 | 0.38 | -1.9
CSc1nc2ccccc2n1CC(=O)Nc1c(C)cccc1C | 0.78 | -0.34
CN(Cc1ccc(F)cc1)C(=O)CNC(=O)c1ccc2c(c1)OCO2 | 0.97 | 0.53
Cc1ccccc1COC(=O)c1nn(-c2ccccc2)nc1N | 1.3 | 0
Nc1nnc(Cc2ccccc2F)s1 | 1.6 | -1.5
CCCC(=O)N(Cc1cc(=O)[nH]c2ccccc12)c1ccc(OC)cc1 | 1.8 | 0.75
CC(C)CNc1nc(SCC(=O)Nc2ccccc2)nc(N2CCOCC2)n1 | 2.1 | 8.9
COc1cccc(NC(=O)c2cc3ccccc3oc2=O)c1 | 0.24 | -1.8
CCOC(=O)c1sc2nc(C)cc(C)c2c1N | 0.91 | -0.41
COc1ccccc1NS(=O)(=O)c1cc(NC(=O)c2sc3cc(Cl)ccc3c2Cl)ccc1C | 0.45 | -0.05
O=C(COc1ccc2ccccc2c1)NNC(=O)Cc1cccc2ccccc12 | 0.84 | 0.53
Cn1ncc(Br)c1C(=O)N/N=C/c1ccc(OS(=O)(=O)c2ccccc2)cc1 | 1.8 | 0.46
CCN1CCN(c2ccc(S(=O)(=O)N3CCCCC3)cc2NC(=O)c2cccc(NC(C)=O)c2)CC1 | 0.21 | 0.03
COC(=O)c1sc2nc(CSc3nc4ccc(C)cc4[nH]3)[nH]c(=O)c2c1C | 0.75 | 0.52
COC(=O)N/N=C/c1cn(CCCOc2ccccc2)c2ccccc12 | 0.82 | 0.09
CCCCN(C(=O)c1ccc(Cl)c(S(=O)(=O)N2CCOCC2)c1)c1c(N)n(CCC)c(=O)[nH]c1=O | 0.33 | 1.1
CCS(=O)(=O)Nc1ccc(-c2nc3cccnc3s2)cc1 | 0.69 | 0.78
COc1cccc(N=Nc2ccc(O)c3ncccc23)c1 | 2.8 | -0.3
O=C1CCN(Cc2ccc(Br)cc2)CCN1[C@H](CO)c1ccccc1 | 0.03 | -3.3
Cc1ccc(C(=O)O/N=C\c2ccc(N3CCOCC3)c([N+](=O)[O-])c2)cc1 | 0.04 | 1.2
COc1ccc(N(CC(=O)N/N=C/c2cc(Br)c(C)o2)S(=O)(=O)c2ccc(NC(C)=O)cc2)cc1 | 0.43 | -0.83
COc1ccccc1C1(CC(=O)O)CCOC(C)(C)C1 (stereo not given) | 0.13 | 1.9
CCOC(=O)Nc1ccc(C)cc1NC(=O)OCC | 1.3 | 0.36
CN(C)c1ccc(/C=N/N=C(N)N)cc1[N+](=O)[O-] | 0.78 | -0.22
COc1ccc(N2C(=O)C(CC(=O)Nc3ccccc3)N(Cc3cccs3)C2=O)cc1 (stereo not given) | 0.82 | -1.9
COc1ccc(C2=NS(=O)(=O)N(C)C(C(=O)N3CCC(C(N)=O)CC3)=C2)cc1 | 0.29 | 0.92
COc1cc(C(=S)N2CCOCC2)cc(OC)c1OS(=O)(=O)c1ccc(NC(C)=O)cc1 | 1.2 | 0.66
COc1cc(OC)cc(C(=O)N2CCN(c3ccccc3F)CC2)c1 | 1.1 | 0.57
Cc1cc(C)cc(NC(=O)Nc2ccc(Cl)cn2)c1 | 0.73 | 0.45
COc1ccc(C)cc1NC(=S)N1CC(C)OC(C)C1 (stereo not given) | 0.89 | 0.32
CN(C)c1nc(OCCNC(=O)Nc2ccccc2)nc(N(C)C)n1 | 1.1 | -0.21
CN(C)c1nc(/C=C(\C#N)C(N)=O)c(Cl)n1-c1ccc(F)cc1 | 0.02 | 0.61
CN(CCOc1ccccc1)CC(=O)Nc1cc([N+](=O)[O-])ccc1Cl | 0.22 | 0.94
COc1ccc(CCNC(=O)CN(c2ccccc2)S(C)(=O)=O)cc1OC | 0.5 | 0.82
NC(=O)C1=C[C@@H](C2CCCCC2)C[C@@H](OCc2ccc(CO)cc2)O1 | 0.75 | -0.42
COc1ccccc1CCNC(=O)C1CCC(=O)N(Cc2cccc(F)c2)C1 (stereo not given) | 0.65 | 0.36
COc1ccc(N2CCN(C(=O)c3cc(=O)c4cc(C)cc(C)c4o3)CC2)cc1 | 2.7 | -0.2
O=C(O)CCn1c(=O)c2ccccc2c2ccccc2c1=O | 1.5 | -0.38
CN(C)c1nc(SCC#N)nc(N2CCOCC2)n1 | 0.65 | -1.4
CN1CCN(c2ccc(NC(=O)COc3ccccc3Cl)cc2)CC1 | 0.15 | -0.49
C/C=C/c1c(F)c(F)c(Oc2ccc(C(=O)O)cc2)c(F)c1F | 1.4 | 1.9
CSC(=NCCCN1CCOCC1)NS(=O)(=O)c1cccs1 | 0.87 | 0
CC(=O)Nc1ccc(NC(=O)CSCc2cnn(-c3ccccc3)c2-n2cccc2)cc1 | 0.19 | -0.16
Cc1cccc(NS(=O)(=O)c2cccc(C(=O)Nc3cccc(C(=O)O)c3)c2)c1 | 0.97 | 0.13
Nc1ccccc1SC1CC(=O)N(c2ccc(Cl)c(Cl)c2)C1=O (stereo not given) | 0.65 | 0.01
CCOC(=O)n1c(=O)oc2ccc(Cl)cc21 | 0.76 | -0.04
Cc1ccc(C(=O)N2CCCC(N(C)Cc3ccccc3)C2)s1 (stereo not given) | 0.17 | -0.15
Cc1cc(Nc2ccc(F)cc2)nc(N)n1 | 0.68 | 0.47
CCCCCC(=O)N/N=C/c1ccc([N+](=O)[O-])o1 | 5 | 0
CCOc1cccc(CN2CCC(CCC(=O)NC3CC3)CC2)c1O | 2.4 | -0.82
CC1CCCN(S(=O)(=O)c2ccc(NC(=O)C3CCN(C(=O)c4ccco4)CC3)cc2)C1 (stereo not given) | 0.54 | -0.14
C1CC2CN(c3nc4nonc4nc3N3CCSCC3)CCN2C1 (stereo not given) | 1.5 | 0.43
CCS(=O)(=O)Nc1ccc(Cc2ccc(NS(=O)(=O)CC)cc2)cc1 | 0.33 | 0.04
Cc1cc(C(F)F)n2nc(C(=O)Nc3ccc(F)cc3F)nc2n1 | 0.08 | -0.98
CC(C)Nc1ncnc2c1nnn2Cc1ccccc1 | 1.5 | -0.06
Cn1c(=O)n(C)c2cc(N3CCOCC3)c(NC(=O)c3ccc(F)cc3)cc21 | 1.1 | -0.39
CCOC(=O)CNC(=O)Cn1cnc2c(nnn2-c2ccc(C)cc2)c1=O | 1.1 | 0.01
N#Cc1cccc(-n2nnnc2-c2ccccn2)c1 | 2 | -2.9
Cn1nnc(C(O)CN2CCOCC2)n1 (stereo not given) | 1.6 | 0.76

Later entries
SMILES | KCNQ2 pot | KCNQ2 pot baseline
CCc1c(C)sc(NC(=O)c2ccccc2[N+](=O)[O-])c1C(N)=O | 0.64 | -0.7
Cc1cccc2cc(CN(CCCN3CCOCC3)Cc3nnnn3C(C)(C)C)c(=O)[nH]c12 | 0.34 | 0.23
Brc1cc2c(cc1C1Nc3ccccc3C3C=CCC31)OCO2 (stereo not given) | 1.6 | -0.01
Cn1c(SCC(=O)N2CCc3ccccc3C2)nnc1-c1ccncc1 | 0.07 | 1.2
C#CCn1c(=NC(=O)c2ccccc2[N+](=O)[O-])sc2cc(S(C)(=O)=O)ccc21 | 0.97 | -0.65
O=S(=O)(N/N=C\c1ccc2c(c1)OCO2)c1ccc(F)cc1 | 0.41 | 0.01
CC(C)NC(=O)C(=O)NC1CCCCCC1 | 0.01 | -0.24
Fc1ccc2nc3n(c2c1F)CCCCCC3 | 0.17 | -0.82
Cc1cccc(NC(=O)C2CCCN(C(=O)NCc3ccccc3)C2)c1C (stereo not given) | 0.18 | -1.2
Cc1ccc(NC(NC(=O)c2ccccn2)C(Cl)(Cl)Cl)cc1 (stereo not given) | 0.03 | -0.11
CN1CCO/C1=C(\C(Cl)=C(Cl)Cl)[N+](=O)[O-] | 2 | -0.35

Of the compounds above, these contain two or more sulfur atoms.
SMILES | KCNQ2 pot | KCNQ2 pot baseline
O=C(NCc1ccccc1Cl)C(=O)NCC1OCCN1S(=O)(=O)c1cccs1 (stereo not given) | 0.01 | -0.66
COc1ccccc1NS(=O)(=O)c1cc(NC(=O)c2sc3cc(Cl)ccc3c2Cl)ccc1C | 0.45 | -0.05
COC(=O)c1sc2nc(CSc3nc4ccc(C)cc4[nH]3)[nH]c(=O)c2c1C | 0.75 | 0.52
CCS(=O)(=O)Nc1ccc(-c2nc3cccnc3s2)cc1 | 0.69 | 0.78
COc1cc(C(=S)N2CCOCC2)cc(OC)c1OS(=O)(=O)c1ccc(NC(C)=O)cc1 | 1.2 | 0.66
CSC(=NCCCN1CCOCC1)NS(=O)(=O)c1cccs1 | 0.87 | 0
CCS(=O)(=O)Nc1ccc(Cc2ccc(NS(=O)(=O)CC)cc2)cc1 | 0.33 | 0.04
C#CCn1c(=NC(=O)c2ccccc2[N+](=O)[O-])sc2cc(S(C)(=O)=O)ccc21 | 0.97 | -0.65
